# Compound activity deposited in PubChem BioAssay by National Center for Advancing Translational Sciences (NCATS).
# NS1 function inh = qHTS Assay for Inhibitors of Influenza NS1 Protein Function; S. cerevisiae slowed by influenza A NS1, growth recovery by OD600; Potency, µM (titrated, usually from 46.1 µM), for the others: top-dose activity, positive = more growth; actives 0.4% (n = 270,000); AID 2326, 2010; note: actives are rising curves; nearly all actives have a fitted effect of over 50% in size
#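 Read-out: OD600 growth recovery of NS1-expressing budding yeast. Cells grown overnight at 30C in -URA glucose medium, washed, resuspended and diluted 1:100 in 2% galactose assay medium, pH 6.0. Same strain lacking NS1 served as positive control.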
# Marburg entry inh = qHTS for inhibitors of binding or entry into cells for Marburg Virus; AID 540276, 2011; Potency, µM (highest dose often 37.8 µM), without a hit: at the highest dose activity change, negative = inhibition, usual class: inhibitors; actives 1.8% (n = 300,000); Marburg virus pseudotyped entry inhibition, cell reporter; control for the full effect not named in the record; about a third of the inactives were read at about 46 µM; active = well fitted inhibition curve with a large enough effect; inconclusive = small, poorly fitted or top-dose-only effect, or effect the other way; inactive = flat fitted curve, though single readings scatter; tested in HEK293 cells; about a fifth of its hits are not listed in these tables; note: % is set by controls: 0 for no effect and ±100 for the full control effect; luciferase read-out
# Cruzain noTriton = qHTS Assay for Promiscuous and Specific Inhibitors of Cruzain (without detergent); purified cruzain, Z-FR-AMC fluorescence, no detergent; Potency, µM, without a hit: max response, negative = inhibition, hits mostly inhibitors; actives 2.3% (n = 200,000); active = well fitted curve in the direction sought with a large enough effect; inconclusive = small, poorly fitted or top-dose-only effect, or another doubt; inactive = no such curve, though single readings can be large; an effect the other way counts as inactive or inconclusive;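 note: plate controls were enzyme without inhibitor for no effect and buffer without enzyme for full effect; nearly all actives have a fitted effect of over 40% in size; top concentration of the series not given in the record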
# Target sequence (P25779 123-467 limits assumed): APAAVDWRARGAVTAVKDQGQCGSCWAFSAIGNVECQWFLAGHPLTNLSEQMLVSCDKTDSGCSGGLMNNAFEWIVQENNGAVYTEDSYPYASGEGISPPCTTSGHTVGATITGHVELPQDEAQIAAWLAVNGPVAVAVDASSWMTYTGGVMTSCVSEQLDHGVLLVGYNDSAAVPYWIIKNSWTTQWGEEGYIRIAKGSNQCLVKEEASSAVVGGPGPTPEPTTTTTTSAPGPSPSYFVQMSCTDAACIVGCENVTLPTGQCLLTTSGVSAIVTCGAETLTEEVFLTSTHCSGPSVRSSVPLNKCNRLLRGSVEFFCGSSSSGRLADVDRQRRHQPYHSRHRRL
#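 Purified cruzain at 1.5 nM, pre-incubated 15 min with compound at room temperature in 100 mM sodium acetate pH 5.5, 5 mM DTT, 0.00005% Triton X-100. Reaction started with 2 uM Z-FR-AMC; AMC fluorescence increase over 60 s gives rate.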
# 2A StopGo = High Throughput Screening for Foot and Mouth Disease Virus Antivirals | human cells with a luciferase reporter of 2A StopGo recoding; control for the full effect not named in the record | actives 1.2% (n = 410,000) | Potency, µM (titrated, usually from 57.9 µM), for inactives: at the highest dose signal change, negative = less light; active = well fitted falling curve with a large enough effect; inconclusive = small, poorly fitted or top-dose-only effect; inactive = no such curve, though single readings can be large or run the other way; tested in HEK293T cells; note: % is set by controls: 0 for no effect and ±100 for the full control effect; nearly all actives have a fitted effect of over 45% in size; luciferase light after 4 h
# RE007 growth inh = qHTS Assay for Inhibitors of the HIV-1 protein Vpr. Potency, µM (doses to about 92.2 µM), without a hit: top-dose activity change, negative = less growth. actives 0.21% (n = 360,000). AID 651644, 2012. S. pombe RE007 Vpr strain, BacTiter-Glo ATP luminescence, 24 h; control for the full effect not named in the record; active = well fitted falling curve with a large enough effect; inconclusive = small, poorly fitted or top-dose-only effect; inactive = no such curve, though single readings can be large or run the other way;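 note: % is set by controls: 0 for no effect and ±100 for the full control effect; nearly all actives have a fitted effect of over 50% in size; the assay follows cell death caused by Vpr and the record does not say whether a fall means rescue or toxicity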
#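 Fission yeast RE007 carrying one integrated HIV-1 vpr copy, seeded at OD 0.01 in PMG+AL medium with 23 nL pinned compound. Grown 24 h at 30 degrees; viability read by BacTiter-Glo luminescence after 5 min.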
# SARS PLpro yeast = qHTS of Yeast-based Assay for SARS-CoV PLP | AID 485353, 2010 | S. cerevisiae expressing SARS-CoV PLpro, growth rescue; control for the full effect not named in the record | Potency, µM (series often up to 32.9 µM), for the others: at the highest dose activity, positive = growth rescue | actives 0.19% (n = 330,000); note: 0% is about no effect; nearly all actives have a fitted effect of over 55% in size; growth read by luminescence after 48 h
# Lassa entry inh = qHTS for Inhibitors of binding or entry into cells for Lassa Virus. Lassa virus pseudotype entry inhibition, cell reporter; control for the full effect not named in the record. Potency, µM (titrated, usually from 37.9 µM), for inactives: top-dose activity change, negative = inhibition, most hits filed as inhibitors. actives 1.2% (n = 300,000). AID 540256, 2011; active means well fitted inhibition curve with a large enough effect; inconclusive means small, poorly fitted or top-dose-only effect, or effect the other way; inactive means flat fitted curve, though single readings scatter; tested in HEK293 cells; note: % is set by controls: 0 for no effect and ±100 for the full control effect; nearly all actives have a fitted effect of over 50% in size; luciferase read-out
# Cruzain Triton = qHTS Assay for Promiscuous and Specific Inhibitors of Cruzain (with detergent) | Cruzipain (Trypanosoma cruzi), P25779 | purified cruzain, Z-FR-AMC fluorescence, 0.01% Triton | Potency, µM, for inactives: max response, negative = inhibition, most hits filed as inhibitors | actives 0.43% (n = 200,000) | AID 1478, 2009; active = well fitted curve in the direction sought with a large enough effect; inconclusive = small, poorly fitted or top-dose-only effect, or another doubt; inactive = no such curve, though single readings can be large; an effect the other way counts as inactive or inconclusive;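 note: plate controls were neutral wells for no effect and buffer without enzyme for full effect; nearly all actives have a fitted effect of over 40% in size; top concentration of the series not given in the record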
#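 Read-out: AMC fluorescence (360 nm excitation, 450 nm emission), four reads over 2 min, first-to-third difference used. Conditions: cruzain 1.5 nM, Z-FR-AMC 2 uM, pH 5.5 acetate, 5 mM DTT, 0.01% Triton X-100.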
# Numbers without * were called inactive; ? = inconclusive; . = not tested or not shown; & = joins results of further samples; [ ] = another dose, or the depositor's remark. Unless noted, calls come from the whole dose curve; as a rule, active means well fitted rising curve with a large enough effect; inconclusive means small, poorly fitted or top-dose-only effect; inactive means no such curve, though single readings can be large or run the other way. Potency is the fitted concentration of half-maximal effect.
mol	NS1 function inh	Marburg entry inh	Cruzain noTriton	2A StopGo	RE007 growth inh	SARS PLpro yeast	Lassa entry inh	Cruzain Triton
COc1ccc(/C=C(\C#N)C(=O)Nc2ccc3[nH]c(=O)[nH]c3c2)cc1	1%	.	.	-17%	3%	1%	.	.
Cc1nc(C)n(CC(O)COc2ccc3ccccc3c2)n1 (stereo not given)	1%	-12%	0%	-16%	-15%	0%	-8%	2.4%
CC(C)Oc1ccc(/C=N/NC(N)=S)cc1	-6%	?	-13%	22%	10%	?	?	-14%
COc1ccc(Cl)cc1NC(=O)CN1CCC(NC(=O)C2CC2)CC1	-5%	?	.	-21%	11%	2%	-21%	.
Cc1ccc(NC(=O)CCC(=O)NNC(=S)Nc2ccccc2)c(C)c1	4%	-2%[46.1 µM]	.	-3%	14%	0%	11%	.
Cc1ccc(CN2CCN(/N=C/c3cccnc3)CC2)c(C)c1	-8%	1%[46.1 µM]	-3%	-28%	-5%	-10%	?	-1.7%
O=C(Cn1c2c(c(=O)n3ncnc13)CCC2)N/N=C/c1ccc(Cl)cc1	1%	.	.	-23%	2%	-2%	.	.
Cc1cc(C)n(CCC(=O)N=Nc2c(O)[nH]c3ccc(Br)cc23)n1	-1%	?	.	-27%	2%	1%	-3%[46.1 µM]	.
CCOc1ccc(-c2nnn(CC(=O)Nc3cccc(OC)c3)n2)cc1OCC	4%	?	?	.	8%	-1%	23%	-8.6%
O=C(COC(=O)C1(c2ccccc2F)CCCC1)NC1CCS(=O)(=O)C1 (stereo not given)	-4%	0%&0%	4%	-4%	-5%	-7%	9%	4.5%
O=C(c1ccccc1)c1cccn1CC(=O)N1CCc2ccccc2C1	.	?	.	5%	8%	1%	-5%[46.1 µM]	.
CN(C)C=NC1=NN(c2cccc(C(F)(F)F)c2)CC1	-23%	12%	-4%	7%	-3%	-17%	-8%	-9.4%
Cc1nnc(SCc2c(Cl)cccc2[N+](=O)[O-])s1	.	?	.	0%	0%	0%	12%[46.1 µM]	.
COc1ccc(/C=N/NC(=O)CC(=O)NC2CCCCC2)cc1	.	0%[46.1 µM]	.	12%	-9%	-1%	7%	.
COc1ccc(NS(=O)(=O)c2ccc(S(=O)(=O)N3CCOCC3)cc2)cc1	-7%	3%	.	-18%	3%	1%	-5%	.
Cc1cccc(-c2nc(N)nc(N)n2)c1	-3%	5%[46.1 µM]	.	54%[activator]	4%	1%	0%	.
CCCCCSc1nnc2c(n1)OC(C)N(C(C)=O)c1ccccc1-2 (stereo not given)	-7%	.	1%	-29%	19%	2%	.	-8.5%
CC(NC(=O)Nc1ccccn1)N1C(=O)C2C3C=CC(C3)C2C1=O (stereo not given)	5%	-4%	-5%	8%	0%	3%	4%	1.3%
CCCOC(=O)c1ccc(Oc2cn[nH]c2-c2ccc(OC)cc2O)cc1	-84%	-23%	-10%	?	?	-47%	?	-11%
COc1ccc(C)cc1NC(=O)CSc1nc2ccccc2nc1N1CCOCC1	.	?	18%	15%	.	.	?	-3.5%
COc1cccc(CN2CCC(C(=O)N3CCN(Cc4ccc5c(c4)OCO5)CC3)CC2)c1OC	5%	?	.	-14%	?	-3%	0%	.
Cc1ccc(NC(=O)c2nnn(CC(=O)Nc3ccc(C)c(Cl)c3)c2N)c(C)c1	.	.	10µM*	21%	.	.	14%[46.1 µM]	1.0%
COc1ccc(NS(=O)(=O)c2cc(Br)cc3c2N(C(C)=O)CC3)cc1	-4%	?	.	30%	-2%	4%	-14%	.
COc1ccc(/C=N/NC(=O)COc2cc(C)cc(C)c2)cc1COC(C)=O	1%	-1%	8%	-18%	14%	-9%	28%	-1.7%
CCC(=O)N1CCc2cc(S(=O)(=O)N3CCN(C(=O)c4ccco4)CC3)ccc21	-5%	-7%	2%	-23%	-3%	.	5%	-3.4%
COC(=O)c1cccc(C23CC4(C2)[C@H](CN(Cc2ccc(-c5ccccc5)cc2)[C@@H]4c2ccccc2)C3c2ccccc2)c1 (stereo not given in full)	6%	.	13µM*	-2%	3%	2%	.	2.8%
CC(C)=C(NC(=O)c1ccccc1)C(=O)NCc1ccccc1	.	-3%[46.1 µM]	.	6%	-11%	-2%	1%[46.1 µM]	.
O=C(NCc1ccccn1)Nc1ccc(Br)cc1Cl	-16%	?	.	38%[activator]	-12%	0%	-6%	.
Cc1cc(C)nc(CCNC(=O)c2cc(COc3ccccc3)on2)n1	-23%	-1%[46.1 µM]	.	18%	-10%	0%	1%[46.1 µM]	.
Cc1ccc(C)c(NC(=O)CCCN2C(=O)C(c3ccccc3)Oc3cccnc32)c1 (stereo not given)	.	.	-3%	-10%	.	.	?	-1.1%
COc1ccccc1CC(=O)O/N=C(\N)Cc1cccc2ccccc12	-22%	?	1%	-11%	6%	-45%	?	-5.8%
CCOC(=O)NC(Nc1ccc(OC)cc1)(C(F)(F)F)C(F)(F)F	-2%	7%	1%	-5%	34%	15%	-1%	-1.8%
COc1ccc(C)cc1S(=O)(=O)Nc1cccc(C)c1	.	-2%[46.1 µM]	.	17%	8%	0%	-9%[46.1 µM]	.
COc1ccc(NC(=O)C2CCCN(c3nn4c(=O)cc(C)nc4s3)C2)c(OC)c1 (stereo not given)	-11%	.	.	-14%	3%	-1%	.	.
CCOc1ccc(C(c2c(O)cc(C)n(CCOC)c2=O)N2CCN(c3ccccc3)CC2)cc1 (stereo not given)	.	.	?	-9%	.	.	-8%[46.1 µM]	1.2%
CC(Oc1ccc(Cl)cc1Cl)C(=O)NCCCN1CCOCC1 (stereo not given)	-5%	-3%	-4%	-8%	0%	4%	.	1.0%
CN(C)CCCN(Cc1cc2cc3c(cc2[nH]c1=O)OCO3)C(=S)Nc1cccc(Cl)c1	1%	?	.	-28%	-17%	0%	?	.
CC(=O)c1ccc(N2CCN(C(=S)Nc3ccc(Oc4ccccc4)cc3)CC2)cc1	.	?	.	0%	-4%	1%	?	.
O=C(COc1ccccc1)Nc1nc2cc3c(cc2s1)OCO3	.	-25%	.	7%	-11%	.	-18%	.
O=C(C(c1ccccc1)c1ccccc1)N1CCC(c2nc(-c3ccccc3Cl)no2)CC1	.	?	.	0%	-10%	.	-15%	.
Cc1ccc(C)c(CN2CCC(CNC(=O)CCc3nnc4ccc(N5CCC(C)CC5)nn34)CC2)c1	3%	.	.	-16%	-20%	0%	.	.
Cc1cc2c(c(=O)o1)C(C13C=CC(CC1)C3)C(C#N)=C(N)O2 (stereo not given)	0%	18%	-11%	-7%	2%	-5%	0%	0.3%
CCOC(=O)c1sc(NC(=O)c2cc(-c3cccc(O)c3)on2)c(C(=O)OCC)c1C	-35%	-17%	29%	7%	14%	-9%	9%	1.2%
COCCNC(=S)NN=C1CCCCCC1	3%	.	.	4%	8%	2%	.	.
Cn1nc(C(F)(F)F)c2cc(C(=O)Nc3ccc(F)cc3)sc21	-6%	-22%[46.1 µM]	.	6%	-10%	-2%	-2%	.
CCOC(=O)Cc1cc(=O)[nH]c(/N=C(\N)Nc2ccc(C)cc2C)n1	0%	-12%	8%	-10%	24%	3%	3%	2.1%
O=C(NNC(=O)c1ccccc1OCc1ccccc1)c1ccccc1F	-4%	-18%[46.1 µM]	.	16%	-9%	0%	-5%[46.1 µM]	.
COC(=O)c1cc2n(n1)CCCNC2=O	1%	11%	.	-6%	-1%	-1%	1%	.
CC(C)S(=O)(=O)c1csc(NC(=O)Nc2cccc([N+](=O)[O-])c2)c1Cl	4%	.	.	?	-13%	0%	.	.
O=C(CSc1cccc[n+]1[O-])c1ccc(Cl)cc1	.	?	.	-8%	-21%	-2%	7%[46.1 µM]	.
O=C1CC(c2cccc(Cl)c2)CC(O)=C1C=Nc1cccc(Cl)c1 (stereo not given)	-53%	0%	-5%	-15%	6%	-77%	12%	-5.8%
Cc1nonc1NC(=O)CSc1nc2ccccc2[nH]1	2%	8%	.	0%	-8%	-1%	?	.
CC(C)(C)C1COc2ccccc2N1C(=O)c1cccc(Cl)c1 (stereo not given)	-3%	?	.	-26%	0%	-1%	-1%	.
CC(C)(C)C(=O)CSc1nnc(Nc2ccccc2)s1	.	?	.	42%[activator]	-19%	1%	?	.
CCc1ccc(NC(=O)CSC2=Nc3ccccc3C3=NC(CC(=O)NC4CCCCC4)C(=O)N23)cc1 (stereo not given)	.	.	-9%	-23%	.	.	14%[46.1 µM]	1.2%
CCCc1cc2c(c(NC(C)=O)n1)c(=O)oc1ccccc12	-3%	?	?	-11%	-3%	23%	-3%	-14%
COc1cc2nc(C3CCC3)nc(N3CCN(c4ccccc4OC)CC3)c2cc1OC	-29%	?	-11%	?	34%	29%	?	-15%
CN(C)CCCNC(=S)N(CCCN(C)C)Cc1cc2cc3c(cc2[nH]c1=O)OCO3	5%	.	.	-4%	-1%	1%	.	.
COc1ccc(C(C)=O)cc1COC(=O)c1c(C)nn(-c2ccccc2)c1C	1%	.	.	?	4%	-2%	.	.
O=C(NCc1ccco1)C1CC(c2cccc([N+](=O)[O-])c2)=NO1 (stereo not given)	16%	.	-7%	-2%	14%	3%	.	-1.3%
CCOc1ccc(NC(=O)c2ccc(N3CC4CC(C3)c3cccc(=O)n3C4)c(NC(=O)c3ccncc3)c2)cc1 (stereo not given)	-5%	.	.	-8%	-3%	7%	.	.
CC(C)Cc1nc(Cl)c(C#N)c2c1CCCC2	4%	.	1%	-32%	-9%	-6%	.	-5.4%
O=C(CN1CCN(S(=O)(=O)c2ccc(F)cc2)CC1)Nc1ccccc1C(=O)NC1CC1	.	-24%	.	-16%	14%	-7%	-1%[46.1 µM]	.
